RE007 growth inh = less growth of the S. pombe RE007 Vpr strain | Potency, µM (top dose mostly 92.2 µM), for the others: at the highest dose activity change, negative = less growth | hit rate 0.21% among 360,000 | S. pombe RE007 Vpr strain, BacTiter-Glo ATP luminescence, 24 h; control for the full effect not named in the record | AID 651644; active = well fitted falling curve with a large enough effect; inconclusive = small, poorly fitted or top-dose-only effect; inactive = no such curve, though single readings can be large or run the other way;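 further: on the % scale 0 is the no-effect control and ±100 the full control effect; nearly all actives have a fitted effect of over 50% in size; the assay follows cell death caused by Vpr and the record does not say whether a fall means rescue or toxicity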
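Fission yeast strain RE007, carrying one chromosomally integrated HIV-1 vpr copy, was seeded at OD 0.01 in PMG+AL medium with 23 nL pinned compound. After 24 h at 30 °C and 99% humidity, viability was read by BacTiter-Glo luminescence.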
Lassa entry inh = inhibitors of Lassa virus binding or cell entry; AID 540256; hit rate 1.2% among 300,000; Potency, µM (doses to about 37.9 µM), for inactives: top-dose activity change, negative = inhibition, most hits filed as inhibitors; Lassa virus pseudotype entry inhibition, cell reporter; control for the full effect not named in the record; active means well fitted inhibition curve with a large enough effect; inconclusive means small, poorly fitted or top-dose-only effect, or effect the other way; inactive means flat fitted curve, though single readings scatter; tested in HEK293 cells; further: on the % scale 0 is the no-effect control and ±100 the full control effect; nearly all actives have a fitted effect of over 50% in size; luciferase read-out
NS1 function inh = influenza NS1 inhibition; Potency, µM (highest dose often 46.1 µM), for inactives: top-dose activity, positive = more growth; S. cerevisiae slowed by influenza A NS1, growth recovery by OD600; AID 2326; hit rate 0.4% among 270,000; active means well fitted rising curve with a large enough effect; inconclusive means small, poorly fitted or top-dose-only effect; inactive means no such curve, though single readings can be large or run the other way; further: nearly all actives have a fitted effect of over 50% in size
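A cell-based growth assay was used: compounds that relieve NS1-induced slow growth of budding yeast raise OD600. Assay medium was yeast nitrogen base with ammonium sulphate and -URA supplement, pH 6.0, with 2% galactose.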
Cruzain noTriton = blocks cruzain activity in detergent-free assay | P25779 | hit rate 2.3% among 200,000 | Potency, µM, for the others: max response, negative = inhibition, most hits filed as inhibitors | purified cruzain, Z-FR-AMC fluorescence, no detergent;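 further: plate controls were enzyme without inhibitor for no effect and buffer without enzyme for full effect; nearly all actives have a fitted effect of over 40% in size; top concentration of the series not given in the record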
Target sequence (P25779 123-467 limits assumed): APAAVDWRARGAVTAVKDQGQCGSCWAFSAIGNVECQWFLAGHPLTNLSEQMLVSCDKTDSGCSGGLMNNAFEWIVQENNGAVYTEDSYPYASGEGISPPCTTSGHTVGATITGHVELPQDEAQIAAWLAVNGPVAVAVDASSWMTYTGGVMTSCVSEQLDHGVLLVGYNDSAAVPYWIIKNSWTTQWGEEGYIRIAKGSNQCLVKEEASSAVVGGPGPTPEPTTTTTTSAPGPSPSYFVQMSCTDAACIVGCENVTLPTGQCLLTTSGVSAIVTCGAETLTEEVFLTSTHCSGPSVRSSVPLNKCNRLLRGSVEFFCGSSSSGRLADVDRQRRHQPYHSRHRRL
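Purified cruzain at 1.5 nM, pre-incubated 15 min with compound at room temperature in 100 mM sodium acetate pH 5.5, 5 mM DTT, 0.00005% Triton X-100. Reaction started with 2 uM Z-FR-AMC; AMC fluorescence increase over 60 s gives rate.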
2A StopGo = FMDV 2A StopGo reporter, luciferase signal. human cells with a luciferase reporter of 2A StopGo recoding; control for the full effect not named in the record. Potency, µM (top dose mostly 57.9 µM), inactives show top-dose signal change, negative = less light. hit rate 1.2% among 410,000. AID 1159524; active = well fitted falling curve with a large enough effect; inconclusive = small, poorly fitted or top-dose-only effect; inactive = no such curve, though single readings can be large or run the other way; tested in HEK293T cells; further: on the % scale 0 is the no-effect control and ±100 the full control effect; nearly all actives have a fitted effect of over 45% in size; luciferase light after 4 h
Cruzain inh Det = blocks cruzain activity in presence of Triton detergent; P25779; purified cruzain, Z-FR-AMC fluorescence, 0.01% Triton; Potency, µM, inactives show max response, negative = inhibition, most hits filed as inhibitors; hit rate 0.43% among 200,000; AID 1478;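 further: plate controls were neutral wells for no effect and buffer without enzyme for full effect; nearly all actives have a fitted effect of over 40% in size; top concentration of the series not given in the record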
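Read-out: AMC fluorescence (360 nm excitation, 450 nm emission), four reads over 2 min, first-to-third difference used. Conditions: cruzain 1.5 nM, Z-FR-AMC 2 uM, pH 5.5 acetate, 5 mM DTT, 0.01% Triton X-100.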
MARV entry inh = inhibitors of Marburg virus binding or cell entry | Marburg virus pseudotyped entry inhibition, cell reporter; control for the full effect not named in the record; about a third of the inactives were read at about 46 µM | Potency, µM (doses to about 37.8 µM), for the others: at the highest dose activity change, negative = inhibition, most hits filed as inhibitors | hit rate 1.8% among 300,000 | AID 540276; active = well fitted inhibition curve with a large enough effect; inconclusive = small, poorly fitted or top-dose-only effect, or effect the other way; inactive = flat fitted curve, though single readings scatter; tested in HEK293 cells; about a fifth of its hits are not listed in these tables; further: on the % scale 0 is the no-effect control and ±100 the full control effect; luciferase read-out
SARS PLP yeast = blocks SARS-CoV papain-like protease in a yeast assay; S. cerevisiae expressing SARS-CoV PLpro, growth rescue; control for the full effect not named in the record; Potency, µM (titrated, usually from 32.9 µM), for inactives: at the highest dose activity, positive = growth rescue; hit rate 0.19% among 330,000; AID 485353; active means well fitted rising curve with a large enough effect; inconclusive means small, poorly fitted or top-dose-only effect; inactive means no such curve, though single readings can be large or run the other way; further: 0% is about no effect; nearly all actives have a fitted effect of over 55% in size; growth read by luminescence after 48 h
Active calls of the source: *; u = inconclusive; x = no result given; & = joins results of further samples; [ ] = remark or other dose. Unless noted, the call rests on the fitted dose curve; in most records, active means well fitted curve in the direction sought with a large enough effect; inconclusive means small, poorly fitted or top-dose-only effect, or another doubt; inactive means no such curve, though single readings can be large; an effect the other way counts as inactive or inconclusive. Potency means the concentration at half of the fitted maximal effect.

SMILES | RE007 growth inh | Lassa entry inh | NS1 function inh | Cruzain noTriton | 2A StopGo | Cruzain inh Det | MARV entry inh | SARS PLP yeast
CC(=O)Nc1ccc(-c2nnc(SCc3c(C)cc(C)cc3C)n2C)cc1 | 4% | u | -7% | u | -3% | 3.2% | u | 4%
Cc1c(C(=O)N2CCCCC2)oc2ccc(Br)cc12 | -1% | -2% | x | x | 92%[activator] | x | 3% | -5%
CC1(C)CC(=O)C2=C(C1)NC(=O)NC2c1ccc(Cl)cc1 (stereo not given) | 14% | -23%[46.1 µM] | 5% | x | -9% | x | -16%[46.1 µM] | 2%
CC1(C)Cc2nc3oc4c(NCc5ccccc5)ncnc4c3cc2CO1 | 3% | -27% | u | u | -17% | -10% | u | -1%
CCc1ccc2oc(-c3ccc(C)c(NC(=O)c4cc([N+](=O)[O-])ccc4N4CCOCC4)c3)nc2c1 | x | -10%[46.1 µM] | x | -5% | -8% | -0.5% | u | x
O=C(OCC(=O)N1CCCCC1)c1c[nH]c2ccccc12 | -7% | 24% | x | x | 40%[activator] | x | u | -1%
CCOC(=O)COc1ccc2c(=O)cc(-c3ccccc3)oc2c1 | -4% | x | -30% | x | 3% | x | x | -1%
NC(=O)NC(=O)COC(=O)CC12CC3CC(CC(C3)C1)C2 | 62% | x | x | x | -12% | x | 1%[46.1 µM] | 1%
N#Cc1cn(-c2ccccc2)nc1-c1cc2ccccc2oc1=O | 3% | 2% | 2% | -3% | 29% | -2.7% | 12%[46.1 µM] | -1%
O=C(Cc1ccccc1)NCC(=O)OCc1ccc([N+](=O)[O-])cc1 | 6% | 14% | 0% | -11% | -17% | 0.4% | u | 6%
COc1ccc2ncc3c(-c4ccccc4)nn(-c4ccc(C)c(C)c4)c3c2c1 | x | 6%[46.1 µM] | x | -6% | -13% | 2.9% | 2%[46.1 µM] | x
COC(=O)C1=C(C)NC(C)=C(C(=O)OC)C1c1ccc(-c2cccc(Cl)c2Cl)o1 | 4% | -8% | 21% | u | -5% | u | -3% | 8%
CC1CCC(NC(=O)CN2CCC(n3nnc4cc(F)ccc43)CC2)CC1 (stereo not given) | -11% | 11% | -6% | 6% | -16% | 2.2% | -15% | -3%
CCOc1ccc(N2CC(NC(=O)c3ccc(S(=O)(=O)N4CCCC4)cc3)CC2=O)cc1 (stereo not given) | x | 1%[46.1 µM] | x | -3% | 1% | 1.3% | x | x
O=S(=O)(Nc1ccc(-c2ccc(N3CCCC3)nn2)cc1)c1ccc(OC(F)(F)F)cc1 | x | u | x | 11% | 20% | -6.7% | x | x
COc1ccc(Br)cc1C(=O)NC(=S)Nc1ccc(CN2CCOCC2)cc1 | -3% | 5%[46.1 µM] | -32% | x | 3% | x | u | -6%
CC(C)Oc1ccc(CNC(=O)Cn2ccc3cc(S(=O)(=O)N4CCCC4)ccc32)cc1 | -4% | x | 10% | x | 2% | x | x | 6%
COc1ccc(C(=O)c2ccc([N+](=O)[O-])cc2Cl)cc1 | u | -9% | 8% | x | -2% | x | u | -1%
Cc1ccc(C(C(=O)NCc2ccco2)N(C(=O)CNC(=O)c2cccs2)c2c(C)cccc2C)cc1 (stereo not given) | 0% | -24%[46.1 µM] | 17% | u | 23% | -0.5% | u | 6%
Cn1c(SCc2nc3ccccc3[nH]2)nnc1-c1cccnc1 | 7% | -2% | 12% | -14% | 15% | 1.6% | u | 2%
COc1ccc(-n2c(N)c(C#N)c3ccc([N+](=O)[O-])cc3c2=O)cc1 | 9% | 15% | 10% | 6% | 50%[activator] | -9.3% | 1% | 13%
Nc1ccc(Nc2nc(-c3ccncc3)cs2)cc1 | -7% | u | -4% | -15% | 15% | -17% | u | -19%
CCC(C)c1ccccc1NC(=O)COC(=O)C1=NN(c2ccccc2)C(=O)CC1 (stereo not given) | 0% | u | x | x | -21% | x | 22% | 11%
CCOc1ccc(NC(=O)CN(C)C(=O)c2ccc3[nH]c4c(c3c2)CC(C)CC4)cc1OCC (stereo not given) | 1% | 0% | x | x | 9% | x | -6% | -4%
C/C(Sc1nnc(Cc2ccccc2)o1)=C(/O)c1ccccc1 | 1% | u | -7% | 0% | 10% | 2.7% | -10% | 1%
Cc1cc(C)c(-c2csc(NC(=O)c3cc([N+](=O)[O-])ccc3N3CCOCC3)n2)c(C)c1 | -2% | -5% | 25% | -14% | u | -3.6% | u | -14%
Cc1cc(=O)oc(C)c1C(=O)NCC(C)NC(=O)c1c(C)cc(=O)oc1C (stereo not given) | 9% | 5% | 2% | -8% | -10% | 2.1% | 19% | -3%
Cc1ccccc1NC(=O)Cn1cnc2c(oc3nc4c(cc32)CCCC4)c1=O | 9% | 17%[46.1 µM] | -6% | x | 3% | x | -27%[46.1 µM] | 13%
Cc1ccc(CNC(=O)C2CC(c3cccc(F)c3)=NO2)cc1 (stereo not given) | -3% | x | -4% | x | 0% | x | x | 1%
OCc1nc(CO)n(Cc2ccccc2)n1 | -11% | 7% | 7% | -7% | 15% | 0.3% | 22% | u
CCCCN1C(=O)C(=O)N(CC(=O)N2CCN(c3ccccc3)CC2)C1=O | -3% | 10% | x | x | -17% | x | 7%[46.1 µM] | -9%
CC1(c2ccccc2)NC(=O)N(CC(=O)Nc2cccc(C#N)c2)C1=O (stereo not given) | 0% | -3% | -5% | -1% | -1% | 2.7% | u | -2%
Cc1c(N=Cc2c(O)n(C)c(=O)c3ccccc23)c(=O)n(-c2ccccc2)n1C | 19% | 5% | -2% | u | -3% | -5.4% | -27% | -6%
CCOc1ccc(NC(=O)CN2CCN(CC(=O)Nc3ccc(C(N)=O)cc3)CC2)cc1 | -5% | x | 1% | x | 7% | x | x | 2%
Cc1ccc(S(=O)(=O)Nc2cccc(Cl)c2)cc1NC(=O)c1cccnc1 | 1% | -15%[46.1 µM] | 1% | x | 44%[activator] | x | u | 1%
CCN(Cc1ccccc1)S(=O)(=O)c1cc2c3c(c1)CCN3C(=O)CC2 | 26% | -13% | x | x | -7% | x | 0% | 0%
COc1ccc(Cc2nc3ccc(C(=O)NCCc4ccc(Cl)cc4)cc3o2)cc1 | x | u | x | 2% | 0% | -2.0% | x | x
O=C(NC1CCCCC1)C(=O)c1c[nH]c2ccccc12 | u | -23% | -18% | x | 44%[activator] | x | 5% | 0%
CCOc1cc(S(=O)(=O)N2CCCC2)ccc1Cl | -3% | -8% | -56% | 6% | x | -1.3% | -9% | 1%
CCC(=O)N1CCc2cc(Br)cc(S(=O)(=O)CC(=O)OC)c21 | -8% | -6% | 6% | -6% | 5% | 3.8% | -3% | -1%
Brc1ccccc1C1=Nn2c(nnc2-c2ccccc2)SC1 | 7% | u | -136% | -14% | -11% | -2.2% | -21% | -10%
O=C(O)c1ccc(Nc2nc3ccccc3c3nncn23)cc1 | x | 19%[46.1 µM] | x | -9% | 18% | -0.3% | 4%[46.1 µM] | x
COc1ccc(Nc2nnc(-c3ccc(C)c(S(=O)(=O)N4CCOCC4)c3)c3ccccc23)cc1 | x | u | x | -10% | 5% | 0.2% | x | x
Clc1ccc(OCc2nnnn2-c2ccccc2)cc1 | 28% | 17% | -26% | -2% | -10% | -4.0% | 0% | -4%
OC(COc1ccc(Cl)cc1Cl)CN1CCc2ccccc2C1 (stereo not given) | -16% | x | -21% | x | 27% | x | x | 0%
CCN(Cc1ccccc1)C(=O)C1CCN(Cc2ccc(OC)c(OC)c2OC)CC1 | -6% | -19% | -5% | 5% | u | 4.2% | 19%&19% | 1%
C=COCCNC(=O)C(=O)NCC(C)C | -6% | -7% | x | x | 19% | x | -13%[46.1 µM] | x
COCCCn1c(=N)c(C(=O)NC2CCCC2)cc2c(=O)n3ccccc3nc21 | x | -9%[46.1 µM] | x | u | -22% | u | u | x
O=C(CN1C(=O)c2cccc3cccc1c23)Nc1ccc2c(c1)OCO2 | 4% | -13% | 4% | -26% | x | 2.0% | 5% | 3%

Ten of these compounds in another layout.
Value order – RE007 growth inh	Lassa entry inh	NS1 function inh	Cruzain noTriton	2A StopGo	Cruzain inh Det	MARV entry inh	SARS PLP yeast
CCC(=O)N1CCc2cc(Br)cc(S(=O)(=O)CC(=O)OC)c21
    -8%	-6%	6%	-6%	5%	3.8%	-3%	-1%
Brc1ccccc1C1=Nn2c(nnc2-c2ccccc2)SC1
    7%	u	-136%	-14%	-11%	-2.2%	-21%	-10%
O=C(O)c1ccc(Nc2nc3ccccc3c3nncn23)cc1
    x	19%[46.1 µM]	x	-9%	18%	-0.3%	4%[46.1 µM]	x
COc1ccc(Nc2nnc(-c3ccc(C)c(S(=O)(=O)N4CCOCC4)c3)c3ccccc23)cc1
    x	u	x	-10%	5%	0.2%	x	x
Clc1ccc(OCc2nnnn2-c2ccccc2)cc1
    28%	17%	-26%	-2%	-10%	-4.0%	0%	-4%
OC(COc1ccc(Cl)cc1Cl)CN1CCc2ccccc2C1 (stereo not given)
    -16%	x	-21%	x	27%	x	x	0%
CCN(Cc1ccccc1)C(=O)C1CCN(Cc2ccc(OC)c(OC)c2OC)CC1
    -6%	-19%	-5%	5%	u	4.2%	19%&19%	1%
C=COCCNC(=O)C(=O)NCC(C)C
    -6%	-7%	x	x	19%	x	-13%[46.1 µM]	x
COCCCn1c(=N)c(C(=O)NC2CCCC2)cc2c(=O)n3ccccc3nc21
    x	-9%[46.1 µM]	x	u	-22%	u	u	x
O=C(CN1C(=O)c2cccc3cccc1c23)Nc1ccc2c(c1)OCO2
    4%	-13%	4%	-26%	x	2.0%	5%	3%

Compound activity as filed in PubChem.
